eIF4H FP inh – inhibitors of RNA binding by human eIF4H; eIF4H fluorescence polarization binding assay; inhibition, % at 35 µM; 0.94% of 290,000 active;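 active means 50% or more with normal probe brightness, or confirmed in later tests; inconclusive means above 50% with abnormal brightness, or retests that disagree; inactive means below 50% or failed in later tests; about a fifth of its hits are not listed in these tables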;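 further: calls also rest on retests at 20 µM and on dose response follow-up; 0% = protein and probe with vehicle and 100% = probe without protein; strong numbers were not always called active; many hits fall short of the cut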
CSC inhib – blocks cancer stem cells. cancer stem cell-like cells viability, luminescence. inhibition, % at 7.5 µM. 1.1% of 300,000 active;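 active means mean at 75% or more and at least half the replicates too; inconclusive means mean and replicates disagree; tested in HMLE shEcad cells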;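 further: 0% = median of negative and 100% = median of positive control wells; the first replicate is given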
Rce1 inhib – yeast Ras-converting enzyme inhibition | calls only | 0.27% of 290,000 active | yeast membranes, quenched prenylated peptide cleavage fluorescence | Q03530;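 active means fall in fluorescence gain of 50% or more versus controls, with final raw signal at or below 3038400; inconclusive means same 50% fall but final raw signal above 3038400; inactive means fall in fluorescence gain under 50%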;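 further: plate controls were neutral control wells for no effect and wells lacking membranes for full effect; tested at 10 µM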
PABP polyA inh – PABP-poly(A) binding inhibition; P11940; PABP-poly(A) RNA binding, fluorescence polarization; inhibition, % at 35 µM; 1% of 290,000 active;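 active means 50% or more with normal probe brightness, or confirmed in later tests; inconclusive means above 50% with abnormal brightness, or retests that disagree; inactive means below 50% or failed in later tests; about a fifth of its hits are not listed in these tables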;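 further: calls also rest on retests at 20 µM and on dose response follow-up; controls were probe without protein and protein plus probe with vehicle; some compounds called inactive have numbers as strong as hits; many hits fall short of the cut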
Target sequence (P11940 whole entry, looked up): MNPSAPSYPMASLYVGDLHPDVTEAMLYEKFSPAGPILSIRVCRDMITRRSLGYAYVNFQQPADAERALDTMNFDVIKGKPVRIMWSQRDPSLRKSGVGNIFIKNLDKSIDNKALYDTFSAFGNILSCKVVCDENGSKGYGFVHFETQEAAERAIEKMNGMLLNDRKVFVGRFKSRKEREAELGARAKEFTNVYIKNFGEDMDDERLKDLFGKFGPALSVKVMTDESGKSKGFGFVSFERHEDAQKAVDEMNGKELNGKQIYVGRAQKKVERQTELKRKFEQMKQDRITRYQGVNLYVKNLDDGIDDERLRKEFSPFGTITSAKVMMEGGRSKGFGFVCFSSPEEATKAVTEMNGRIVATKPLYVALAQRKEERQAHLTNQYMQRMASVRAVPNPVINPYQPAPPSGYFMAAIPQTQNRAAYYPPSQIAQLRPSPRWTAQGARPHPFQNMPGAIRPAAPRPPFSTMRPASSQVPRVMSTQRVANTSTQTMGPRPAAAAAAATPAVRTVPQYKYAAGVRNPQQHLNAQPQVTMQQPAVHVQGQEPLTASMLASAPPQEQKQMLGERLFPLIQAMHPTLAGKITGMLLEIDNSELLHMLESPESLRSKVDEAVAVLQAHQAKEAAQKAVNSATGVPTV
Yeast UUG start – modulators of start codon recognition fidelity in yeast; activity score, % at 18.7 µM; S. cerevisiae UUG-firefly luciferase reporter, luminescence/redox ratio; 0.13% of 350,000 active; AID 602363;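 active means replicate mean at a twofold rise or more, about +100% in these data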;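 further: firefly luciferase made from a UUG start codon reports start codon fidelity; reporter light over untreated wells divided by growth signal over untreated wells; some hits fall short of that in this replicate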
MT1-MMP act inh – MT1-MMP (human) activation inhibition; GFP/RFP ratio change, % at 20 µM; 0.061% of 360,000 active; HT1080 RFP-PRO-GFP cells, GFP/RFP ratio fluorescence, overnight; percent of plate control window, DMSO zero; AID 651647; P50281;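 active means GFP/RFP ratio change of at least 30% with cell ATP level not reduced by more than half and red fluorescence within 50% of control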; further: strong numbers were not always called active
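Material: RFP-PRO-GFP reporter HT1080 cells. Dosing: single-point 20 µM compound, 1% DMSO. Controls: DMSO and RFP-L50D-GFP cell wells. Timing: cells overnight before dosing, compound overnight, 37 °C, 5% CO2. Measure: GFP/RFP fluorescence ratio.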
HIV Env fusion – inhibitors of HIV Env-mediated cell fusion | HeLa-JRFL Env/CEM21 cell fusion, luciferase | 1.1% of 360,000 active | inhibition, % at 12.3 µM;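 active means mean replicate inhibition score of at least 50 and every replicate individually at or above 50; inconclusive means only one of the two criteria met; inactive means mean below 50 and not all replicates reaching 50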;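 further: 0% = plate neutral controls and 100% = maraviroc near 300 nM; one replicate is shown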
eIF4H FP inh retest – further read-out of eIF4H FP inh, marked with its call; inhibition, %; compound at 20 µM; confirmation average;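 mean of two retest wells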
PABP polyA inh retest – recorded beside PABP polyA inh, whose call it bears; inhibition, %; compound at 20 µM; confirmation repeats;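 mean of two retest wells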
MT1-MMP act inh RFP – second read-out of MT1-MMP act inh, no call of its own (marks repeat the call); RFP signal change, %; measured here: RFP expression control read;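 0 = vehicle wells; hits needed this value within 50% of zero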
Active calls of the source: *; i = inactive; ? = inconclusive; nt = no result given; & = joins results of further samples.

SMILES	eIF4H FP inh	CSC inhib	Rce1 inhib	PABP polyA inh	Yeast UUG start	MT1-MMP act inh	MT1-MMP act inh RFP	HIV Env fusion	others
O=C(c1ccco1)N1CCN(C(=O)C(Sc2ccccc2)c2ccccc2)CC1 (stereo unspecified)	0.2	7.1	i	-3.2	3.8	-2.5	-6.4	nt
O=C(CSc1nnc2n1CCCN2)c1ccccc1	5.3	-1.2	i	-1.2	-22.6	2.1	-1.6	-22.7
O=C(NCc1csc(-c2cccs2)n1)Nc1ccc(C(F)(F)F)cc1	3.9	-8.9	i	-1.0	-18.9	-1.5	-0.1	17.6
Cc1cc(NC(=O)COc2cccc([N+](=O)[O-])c2)no1	5.3	-3.2	i	11.1	0.2	0.0	2.0	-2.4
COc1cc(NC(=S)NCc2cccnc2)cc(OC)c1	1.0	-12.3	i	-2.5	nt	2.6	3.1	12.2
Cc1nn(Cc2ccccc2)c(N)c1C#N	-10.9	-18.4	i	6.8	-18.9	2.3	8.8	nt
CC1CCCCC1NC1=NCCCS1 (stereo unspecified)	-6.9	nt	i	-3.5	nt	nt	nt	nt
Cc1cnc(C(=O)Nc2ccc(N3CCOCC3)cc2)cn1	3.6	-0.7	i	-0.1	93.2	2.7	3.0	-10.8
Cc1nc(N2CCOCC2)nc2c1CCC2	18.0	-2.5	i	17.9	nt	1.5	1.5	4.9
O=C(N/N=C/c1ccccn1)c1ccc(Cl)cc1	4.0	5.3	i	-14.0	-16.1	4.0	3.4	-5.8
CCCn1c(SCC(=O)NC2CC2)nnc1-c1cccs1	-6.9	-7.5	i	13.6	-7.3	-2.5	-2.6	-20.2
O=C(Nc1ccc(F)cc1)c1ccc(S(=O)(=O)N2CCCC2)cc1	2.0	-4.6	i	5.9	3.0	-2.9	-3.4	7.8
O=S(=O)(Nc1ccc(N2CCCCC2)cc1)c1ccc(F)cc1F	5.9	6.5	i	0.3	-11.3	-7.4	-3.4	6.8
O=C(NCC1CCCO1)Nc1ccc(Cl)cc1 (stereo unspecified)	5.8	8.7	i	9.8	-14.2	5.0	8.8	nt
COc1ccc(NC(=O)C2CCC(CNc3c(N4CCC(C)CC4)c(=O)c3=O)CC2)cc1OC (stereo unspecified)	0.4	-4.2	i	-8.1	5.8&-9.9	2.7&0.2	2.1&7.5	i
CCc1ccc(N2CC34C=CC(O3)C(C(=O)OC)C4C2=O)cc1 (stereo unspecified)	-21.7	nt	i	-15.9	-13.1	3.2	4.4	-1.9
N#CC1=C2N=C(N)c3ccccc3N2C2=C(C(=O)CCC2)C1c1ccc(Cl)cc1 (stereo unspecified)	115.1	nt	i	6.0	-14.6	-1.6	-7.3	-3.0	eIF4H FP inh retest=18.2;PABP polyA inh retest=1.0
COc1ccc(OCC(=O)NCC(c2ccc(OC)cc2)N2CCCCC2)cc1 (stereo unspecified)	3.1	nt	i	-0.5	-9.9	1.2	2.6	5.9
CC1(C)CC(=O)C/C(=N\NC(=S)NCc2ccccc2)C1	-0.6	-1.2	i	21.4	nt	1.0	5.2	-9.1
CC(=O)C1CCC2C3CCC4=CC(=O)CCC4(C)C3(F)C(O)CC12C (stereo unspecified)	nt	nt	nt	nt	1.3	1.1	-1.9	-17.1
CC(NC(=O)c1ccccc1Cl)C(=O)NCc1cccs1 (stereo unspecified)	nt	nt	nt	nt	2.3	-3.2	-0.8	3.3
CCOc1ccc(Br)cc1C(=S)N1CCCC1	3.9	-10.1	i	-6.0	-18.7	3.3	4.2	3.4
C[C@H]1CN([C@@H](C)CO)C(=O)c2cc(-c3ccccc3F)cnc2O[C@H]1CN(C)C(=O)C1CCOCC1	nt	nt	nt	nt	-14.0&4.4	3.8	6.1	9.4
COc1cccc(C(=O)OCC(=O)NCCc2ccccc2)c1OC	4.0	-3.2	i	47.4	nt	3.0	9.3	-36.4
CCOc1ccc(OCC(O)CNC2CCN(Cc3ccccc3)CC2)cc1 (stereo unspecified)	-1.7	33.7	i	0.2	-8.1	7.4	1.5	2.0

Filtered by structure, the entries above with a cyano group.
SMILES	eIF4H FP inh	CSC inhib	Rce1 inhib	PABP polyA inh	Yeast UUG start	MT1-MMP act inh	MT1-MMP act inh RFP	HIV Env fusion	others
Cc1nn(Cc2ccccc2)c(N)c1C#N	-10.9	-18.4	i	6.8	-18.9	2.3	8.8	nt
N#CC1=C2N=C(N)c3ccccc3N2C2=C(C(=O)CCC2)C1c1ccc(Cl)cc1 (stereo unspecified)	115.1	nt	i	6.0	-14.6	-1.6	-7.3	-3.0	eIF4H FP inh retest=18.2;PABP polyA inh retest=1.0

The main list resumes; the 3 compounds before the break are reprinted first.
SMILES	eIF4H FP inh	CSC inhib	Rce1 inhib	PABP polyA inh	Yeast UUG start	MT1-MMP act inh	MT1-MMP act inh RFP	HIV Env fusion	others
C[C@H]1CN([C@@H](C)CO)C(=O)c2cc(-c3ccccc3F)cnc2O[C@H]1CN(C)C(=O)C1CCOCC1	nt	nt	nt	nt	-14.0&4.4	3.8	6.1	9.4
COc1cccc(C(=O)OCC(=O)NCCc2ccccc2)c1OC	4.0	-3.2	i	47.4	nt	3.0	9.3	-36.4
CCOc1ccc(OCC(O)CNC2CCN(Cc3ccccc3)CC2)cc1 (stereo unspecified)	-1.7	33.7	i	0.2	-8.1	7.4	1.5	2.0
Cc1noc(C)c1COc1cccc(C(=O)NCc2ccccc2Cl)c1	-1.5	18.3	i	-6.3	-1.5	-0.5	-6.5	nt
O=C(Nc1cccc(-n2cccn2)c1)C1CCCN(Cc2ccc(C#CCCO)cc2)C1 (stereo unspecified)	-8.1	-8.1	i	1.5	-6.3	2.3	-2.1	-1.8
COc1ccccc1CNC(=O)C1CCCN(S(=O)(=O)c2ccc3c(c2)CC(C)N3C(C)=O)C1 (stereo unspecified)	-10.4	1.0	i	1.1	-17.0	-3.5	-6.2	-4.1
CC1C(=NO)C(C)C(c2ccc(N(C)C)cc2)NC1c1ccc(N(C)C)cc1 (stereo unspecified)	-2.7	1.0	i	-8.0	-3.3	-1.1	-1.0	nt
CCCNC(=S)N1CCC(NC(=O)c2cccc(C)c2)CC1	-2.3	-14.2	i	-4.0	-16.4	4.9	0.2	8.8
O=C1[C@H](Cc2ccccc2)NCCCC[C@H](c2ccco2)N1Cc1ccccc1	nt	nt	nt	nt	-15.1	-20.7	-14.2	74.5*
Cc1ccc(Cl)cc1N1CCN(S(=O)(=O)c2ccc3c(c2)oc(=O)n3C)CC1	-7.4	-3.0	i	13.7	-15.8	-1.7	-14.9	26.3
Cc1ccc2nc(Cl)c(/C=C/C(=O)c3ccco3)cc2c1	-5.8	13.1	i	-1.0	nt	-3.4	-5.7	-136.1
COc1ccc(-n2cc(-c3ccccc3)c3c(=O)[nH]cnc32)cc1	-5.4	-5.3	i	12.9	-5.2	0.4	-6.6	?
CCC(=O)Nc1cc(C(F)(F)F)ccc1N1CCCC1	-8.0	-2.4	i	2.2	nt	0.6	4.1	8.3
COc1ccc2c(=O)cc(-c3ccccc3F)oc2c1	-1.7	2.8	i	-6.5	-11.2	-1.9	-0.4	-16.9
COC(=O)C(CC(=O)O)NCc1ccco1 (stereo unspecified)	2.0	2.4	i	4.1	-16.8	4.4	6.3	-18.9
Cc1cccc(NC(=O)c2sc3ncn(CC(=O)N4CCN(c5ccccn5)CC4)c(=O)c3c2C)c1	1.4	-7.3	i	3.3	-17.4	3.6	-0.2	1.2
CCCCn1c(N)c(N(CCC(C)C)C(=O)c2cc(Cl)nc3ccccc23)c(=O)[nH]c1=O	nt	nt	nt	nt	2.1	3.0	-2.7	0.6
Cn1c(N)c(C(=O)COC(=O)c2cc(C(F)(F)F)nc3ccccc23)c(=O)n(C)c1=O	-0.4	-28.5	i	2.0	nt	nt	nt	16.5
CC(=O)N1CCN(S(=O)(=O)c2cccc(C(=O)NC3CCCc4ccccc43)c2)CC1 (stereo unspecified)	-10.5	10.1	i	4.4	nt	5.1	5.5	nt
N#Cc1c(N)nc2c(c1-c1cccnc1)CCCCC2	10.8	-13.6	nt	4.3	-11.4	-7.4	-0.5	26.6
COc1cc(C(=O)Nc2ccc(S(=O)(=O)N3CCCCC3)cc2)ccc1OCC(=O)N1CCOCC1	nt	nt	nt	nt	13.4	-2.9	-4.1	5.9
C[C@@H]1C(=O)N(c2ccccc2)[C@@H]1c1ccncc1	nt	nt	nt	nt	-25.1	1.8	3.3	12.8
O=C1CN(C(=O)COC(=O)[C@@H]2CCCN2S(=O)(=O)c2ccc(Cl)cc2)c2ccccc2N1	nt	-21.1	nt	nt	-6.0	-3.1	3.6	-10.1
Cc1ccc(S(C)(=O)=NC(=O)c2cc(C)on2)cc1 (stereo unspecified)	12.1	3.6	i	-7.9	nt	-0.6	0.8	-8.6
O=C(CC(c1ccccc1)c1ccccc1O)NCc1ccccc1 (stereo unspecified)	5.3	-12.8	i	4.6	nt	-0.5	-0.4	20.4
Cc1cc(C)nc(/N=C(\N)Nc2ccccc2-c2ccccc2)n1	-7.3	20.4	i	0.4	nt	-4.4	-9.3	-4.7
CCOc1ncnc2c1sc1nc(C)cc(C)c12	6.5	-6.6	i	-4.3	nt	-6.8	-1.2	-14.1
CCCCn1c(N)c(N(CC(C)C)C(=O)C2=NN(c3ccccc3)C(=O)CC2)c(=O)[nH]c1=O	nt	-14.4	nt	nt	-1.2	-1.5	0.0	4.8

(more compounds)
SMILES	eIF4H FP inh	CSC inhib	Rce1 inhib	PABP polyA inh	Yeast UUG start	MT1-MMP act inh	MT1-MMP act inh RFP	HIV Env fusion	others
CSc1ccccc1NC(=O)CN(C)C(=O)c1ccc(-n2cccn2)cc1	nt	0.4	nt	nt	-7.2	-2.2	-2.5	nt
O=C(Nc1ccccc1F)N1CCCC1c1cccnc1 (stereo unspecified)	0.6	-7.4	nt	-4.7	nt	-1.0	-3.0	-0.7
COc1ccc(NS(=O)(=O)c2ccc(-n3cnnn3)cc2)cc1OC	-4.5	nt	i	8.6	-6.9	-3.1	-16.3	1.4
O=C(COc1ccccc1)NCC(=O)Nc1cccc2ccccc12	4.8	-7.7	i	25.4	11.2	0.3	2.9	-2.1
CC(=O)NC(Cc1c[nH]c2ccccc12)C(=O)OCC(=O)N1CCCCCC1 (stereo unspecified)	-12.5	-15.9	i	-12.9	6.9	-0.5	4.7	-22.5
O=C(C1COc2ccccc2O1)N1CCN(Cc2ccc3c(c2)OCO3)CC1 (stereo unspecified)	-4.5	37.7	i	1.4	-5.7	3.6	-5.8	nt
O=C(O)C1CC(=O)N(c2ccc(F)cc2)C1 (stereo unspecified)	-2.4	-6.5	i	7.0	-9.9	-0.9	0.4	-34.5
O=C(COC(=O)Cc1ccsc1)Nc1ccc(Cl)c(S(=O)(=O)N2CCOCC2)c1	-3.1	-9.8	i	1.8	14.9	-1.0	0.9	nt
CCOc1ccc(-n2c(C)cc(C(=O)NS(=O)(=O)c3ccc(C)cc3)c2C)cc1	-9.1	3.7	i	-11.0	-10.6	1.1	4.8	-8.7
COc1ccc2nc(NC(=O)C3CCCN3S(=O)(=O)c3ccc(C)cc3)sc2c1 (stereo unspecified)	-17.1	-5.4	i	-12.6	-7.8	-0.8	-8.3	nt
CCC(=O)OCC(=O)Nc1cc([N+](=O)[O-])ccc1Cl	7.1	-4.6	i	-8.7	nt	2.8	2.7	0.6
CCCCNC(=O)c1ccc(CS(=O)(=O)c2ccccc2OC)o1	-5.0	-22.6	i	3.5	-8.3	3.1	1.6	-9.2
CCN(CC)S(=O)(=O)c1cc(C(=O)Nc2cccnc2)ccc1Cl	0.6	-8.1	i	-0.8	-14.7	-1.1	-2.7	15.1

Assay outcomes from PubChem BioAssay.
